A1 apoptosis 2: compounds inhibiting A1, read as caspase activation. MEF A1-2A-BIM cells, caspase-Glo luminescence, 3 h; percent of clofoctol response, DMSO zero. caspase activation, % (concentration not given with the values). 24,000 tested, under 10 active. AID 2465; in the data active means caspase activation above about 5.9%;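 further: wells of about 30 µL received 50 nL stock; the first replicate is given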
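Evaluation: Caspase-3/7 activity from luminescence increase | Assay system: A1-2A-BIM mouse embryonic fibroblasts | Quantity: 2500 MEF cells/well | Medium: RPMI-1640 plus 10% FBS | Detection: Caspase-Glo 3/7 luminescence, 1 h at room temperature | Dosing: 50 nL compound per well, pinned | Timing: Cells settled overnight, compound exposure 3 h at 37 °C, 5% CO2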
Starred values were filed as active, the others as inactive.

Start of the listing, in advance, 3 compounds:
SMILES	A1 apoptosis 2
C[C@@H]1CN([C@H](C)CO)C(=O)c2cccc(NC(=O)Nc3cccc4ccccc34)c2O[C@H]1CN(C)C(=O)NC1CCCCC1	-1.3
C[C@@H]1CN([C@H](C)CO)C(=O)c2cc(NC(=O)Nc3cccc4ccccc34)ccc2O[C@H]1CN(C)C(=O)NC1CCCCC1	-1.3
COc1ccc(-c2cnc3c(c2)C(=O)N([C@H](C)CO)C[C@H](C)[C@H](CN(C)S(=O)(=O)c2cn(C)cn2)O3)cc1	0.1

Main list (from the top)
SMILES	A1 apoptosis 2
C[C@@H]1CN([C@H](C)CO)C(=O)c2cccc(NC(=O)Nc3cccc4ccccc34)c2O[C@H]1CN(C)C(=O)NC1CCCCC1	-1.3
C[C@@H]1CN([C@H](C)CO)C(=O)c2cc(NC(=O)Nc3cccc4ccccc34)ccc2O[C@H]1CN(C)C(=O)NC1CCCCC1	-1.3
COc1ccc(-c2cnc3c(c2)C(=O)N([C@H](C)CO)C[C@H](C)[C@H](CN(C)S(=O)(=O)c2cn(C)cn2)O3)cc1	0.1
Cc1noc(C)c1S(=O)(=O)Nc1cccc2c1O[C@@H](CN(C)C(=O)NC1CCCCC1)[C@@H](C)CN([C@H](C)CO)C2=O	0.3
C[C@H](CO)N1C[C@H](C)[C@H](CN(C)C(=O)Nc2ccc3c(c2)OCO3)Oc2c(NS(=O)(=O)c3ccc(F)cc3)cccc2C1=O	-0.5
C[C@H]1CN([C@@H](C)CO)C(=O)Cc2cc(NS(=O)(=O)c3cn(C)cn3)ccc2O[C@H]1CN(C)C(=O)Nc1ccccc1	1.4
C[C@@H]1CN([C@H](C)CO)C(=O)c2cc(NC(=O)C3CC3)ccc2O[C@@H]1CN(C)Cc1ccc(Cl)c(Cl)c1	0.7
C[C@H](CO)N1C[C@H](C)[C@@H](CN(C)Cc2ccncc2)Oc2ccc(NC(=O)C3CCCCC3)cc2C1=O	-0.7
C[C@@H]1CN([C@@H](C)CO)C(=O)c2cc(NC(=O)c3ccccc3)ccc2O[C@@H](C)CCCCO[C@H]1CN(C)Cc1ccc(C(F)(F)F)cc1	-0.1
C[C@H](CO)N1C[C@H](C)[C@H](CN(C)CC2CC2)Oc2ccc(NC(=O)Nc3cccc4ccccc34)cc2CC1=O	0.7
COc1ccc(S(=O)(=O)N(C)C[C@H]2Oc3ccc(NC(=O)NC4CCCCC4)cc3CC(=O)N([C@@H](C)CO)C[C@@H]2C)cc1	-1.1
C[C@@H]1CCCCO[C@H](CN(C)C(=O)CCC(F)(F)F)[C@@H](C)CN([C@H](C)CO)C(=O)c2cc(NS(C)(=O)=O)ccc2O1	-0.7
COc1ccc(NC(=O)N(C)C[C@H]2OCCCC[C@H](C)Oc3ccc(NS(=O)(=O)c4cccs4)cc3C(=O)N([C@@H](C)CO)C[C@@H]2C)cc1	-0.3
O=S(=O)(N[C@H]1CCN(Cc2cccc(OCCO)c2)C1)c1ccc2ccccc2c1	-0.9
C[C@@H]1CCCCO[C@@H](CN(C)S(=O)(=O)c2ccc(F)cc2)[C@@H](C)CN([C@H](C)CO)C(=O)c2cc(NS(=O)(=O)c3ccc(Cl)cc3)ccc2O1	0.6
C[C@H](CO)N1C[C@H](C)[C@H](CN(C)Cc2ccc3c(c2)OCCN3C)OCc2cn(nn2)CCCC1=O	0.2
C[C@@H]1CCCCO[C@@H](CN(C)CC2CC2)[C@H](C)CN([C@@H](C)CO)C(=O)c2cc(NC(=O)Nc3ccc(F)cc3)ccc2O1	0.3
O=C(O)CCCCCCC(=O)N/N=C/c1cc(Br)cc(Br)c1O	0.9
C[C@@H]1CN([C@H](C)CO)C(=O)c2cccc(NC(=O)c3nc4ccccc4s3)c2O[C@@H]1CN(C)Cc1ccc(Oc2ccccc2)cc1	-0.8
C[C@@H]1CCCCO[C@H](CN(C)C(=O)Nc2ccccc2)[C@H](C)CN([C@H](C)CO)C(=O)c2cc(N(C)C)ccc2O1	0.8
CC(C)NC(=O)N(C)C[C@@H]1OCCCC[C@@H](C)Oc2ccc(NS(=O)(=O)c3ccccc3)cc2C(=O)N([C@H](C)CO)C[C@@H]1C	-0.3
C[C@H](CO)N1C[C@H](C)[C@@H](CN(C)C(=O)NC2CCCCC2)Oc2c(NS(=O)(=O)c3ccccc3)cccc2C1=O	0.4
COc1ccc(CN(C)C[C@@H]2Oc3c(NC(=O)C4CCCCC4)cccc3C(=O)N([C@@H](C)CO)C[C@H]2C)cc1	1.2
C[C@H]1CN([C@@H](C)CO)C(=O)Cc2cc(NC(=O)Cn3cnnn3)ccc2O[C@@H]1CN(C)Cc1ccc(-c2ccccc2)cc1	-1.5
Cc1noc(C)c1S(=O)(=O)Nc1ccc2c(c1)C(=O)N([C@H](C)CO)C[C@@H](C)[C@@H](CN(C)S(=O)(=O)c1cccs1)O2	0.6
C[C@@H]1CN([C@@H](C)CO)C(=O)c2cc(N(C)C)ccc2O[C@@H](C)CCCCO[C@@H]1CN(C)C	1.1
C[C@@H]1CCCCO[C@H](CN(C)C(=O)c2ccccc2)[C@@H](C)CN([C@H](C)CO)C(=O)c2cc(NS(=O)(=O)c3ccc(Cl)cc3)ccc2O1	0.1
C=CCC/C=N/NC(=O)CCCCCCC(=O)Nc1ccccc1O	-1.1
O=C(NCC(O)CO)[C@]1(CCS(=O)(=O)c2ccccc2)N=C(c2ccc(OCCCO)cc2)O[C@@H]1c1ccccc1 (stereo partly specified)	0.3
COc1ccc(CN(C)C[C@@H]2Oc3c(NS(=O)(=O)c4ccc(Cl)cc4)cccc3C(=O)N([C@H](C)CO)C[C@@H]2C)cc1	0.5
C[C@H]1CN([C@@H](C)CO)C(=O)c2cccc(NC(=O)C3CCCCC3)c2O[C@H]1CN(C)S(=O)(=O)c1ccc(Cl)cc1	-0.4
C[C@@H]1CN([C@H](C)CO)C(=O)Cc2cc(NS(=O)(=O)c3cn(C)cn3)ccc2O[C@@H]1CN(C)C(=O)Nc1ccc(F)cc1	0.9
C[C@@H]1CCCCO[C@@H](CN(C)C(=O)Nc2ccc(C(F)(F)F)cc2)[C@H](C)CN([C@@H](C)CO)C(=O)c2cc(NC(=O)c3ccncc3)ccc2O1	-0.2
C[C@@H]1CN([C@H](C)CO)C(=O)c2cccc(NS(=O)(=O)c3cccs3)c2O[C@H]1CN(C)C(=O)Nc1ccc2c(c1)OCO2	0.1
C[C@H]1CCCCO[C@H](CN(C)CC2CCCCC2)[C@@H](C)CN([C@@H](C)CO)C(=O)c2cc(NS(=O)(=O)c3cccs3)ccc2O1	0.0
C[C@@H]1CN([C@H](C)CO)C(=O)c2cc(NC(=O)C3CCCCC3)ccc2O[C@@H](C)CCCCO[C@H]1CN(C)C(=O)C1CCCCC1	1.8
C[C@H](CO)N1C[C@H](C)[C@H](CN(C)Cc2ccc3c(c2)OCO3)Oc2ccc(N(C)C)cc2CC1=O	1.2
Cc1noc(C)c1NC(=O)Nc1ccc2c(c1)C(=O)N([C@@H](C)CO)C[C@@H](C)[C@@H](CN(C)C(=O)Nc1ccccc1)OCCCC[C@H](C)O2	0.1
C[C@@H]1CCCCO[C@@H](CN(C)Cc2ccc(Cl)c(Cl)c2)[C@@H](C)CN([C@H](C)CO)C(=O)c2cc(NC(=O)c3ccccc3)ccc2O1	-1.1
COc1ccc(S(=O)(=O)N(C)C[C@H]2Oc3ccc(NC(=O)Cc4ccccc4)cc3C(=O)N([C@H](C)CO)C[C@@H]2C)cc1	0.6
C[C@@H]1CN([C@@H](C)CO)C(=O)Cc2cc(NS(=O)(=O)c3cn(C)cn3)ccc2O[C@H]1CN(C)Cc1ccncc1	0.1
COc1ccc(NC(=O)N(C)C[C@@H]2OCc3cn(nn3)CCCC(=O)N([C@@H](C)CO)C[C@@H]2C)c(OC)c1	-1.0
COc1ccc(S(=O)(=O)N(C)C[C@@H]2Oc3ccc(NS(=O)(=O)c4ccc(F)cc4)cc3C(=O)N([C@H](C)CO)C[C@@H]2C)cc1	-0.8
C[C@@H]1CN([C@H](C)CO)C(=O)Cc2cc(NC(=O)C3CC3)ccc2O[C@H]1CN(C)Cc1ccc(Cl)c(Cl)c1	0.6
Cc1noc(C)c1S(=O)(=O)Nc1ccc2c(c1)CC(=O)N([C@H](C)CO)C[C@H](C)[C@H](CN(C)Cc1ccncc1)O2	0.0

Two entries from above, with bars between the fields:
canonical_smiles | A1 apoptosis 2
C[C@@H]1CN([C@H](C)CO)C(=O)c2cc(NC(=O)C3CCCCC3)ccc2O[C@@H](C)CCCCO[C@H]1CN(C)C(=O)C1CCCCC1 | 1.8
COc1ccc(S(=O)(=O)N(C)C[C@H]2Oc3ccc(NC(=O)Cc4ccccc4)cc3C(=O)N([C@H](C)CO)C[C@@H]2C)cc1 | 0.6

The listing picks up, starting 2 compounds before the break.
SMILES	A1 apoptosis 2
C[C@@H]1CN([C@H](C)CO)C(=O)Cc2cc(NC(=O)C3CC3)ccc2O[C@H]1CN(C)Cc1ccc(Cl)c(Cl)c1	0.6
Cc1noc(C)c1S(=O)(=O)Nc1ccc2c(c1)CC(=O)N([C@H](C)CO)C[C@H](C)[C@H](CN(C)Cc1ccncc1)O2	0.0
Cc1ccc(S(=O)(=O)Nc2ccc3c(c2)C(=O)N([C@@H](C)CO)C[C@H](C)[C@H](CN(C)C)O3)cc1	-0.6
C[C@@H]1CCCCO[C@H](CN(C)S(=O)(=O)c2ccc(F)cc2)[C@@H](C)CN([C@@H](C)CO)C(=O)c2cc(NS(=O)(=O)c3ccc(F)cc3)ccc2O1	-1.0
CC(C)NC(=O)Nc1ccc2c(c1)C(=O)N([C@@H](C)CO)C[C@@H](C)[C@@H](CN(C)S(=O)(=O)c1cn(C)cn1)OCCCC[C@@H](C)O2	0.1
C[C@@H]1CCCCO[C@H](CN(C)S(=O)(=O)c2ccccc2)[C@@H](C)CN([C@H](C)CO)C(=O)c2cc(NS(=O)(=O)c3cccs3)ccc2O1	0.1
Cc1noc(C)c1S(=O)(=O)Nc1ccc2c(c1)C(=O)N([C@H](C)CO)C[C@@H](C)[C@H](CN(C)C(=O)Nc1ccc(C(F)(F)F)cc1)OCCCC[C@@H](C)O2	-1.3
CC(C)NC(=O)N(C)C[C@H]1OCCCC[C@H](C)Oc2ccc(NC(=O)Cc3ccccc3)cc2C(=O)N([C@@H](C)CO)C[C@@H]1C	-0.4
CC(C)NC(=O)N(C)C[C@@H]1OCCCC[C@H](C)Oc2ccc(N(C)C)cc2C(=O)N([C@@H](C)CO)C[C@H]1C	0.8
CC(C)NC(=O)N(C)C[C@@H]1OCCCC[C@@H](C)Oc2ccc(N(C)C)cc2C(=O)N([C@@H](C)CO)C[C@@H]1C	0.3
O=C(c1ccccc1)N1Cc2ccccc2[C@@H]2OC(c3ccc(OCCCO)cc3)=N[C@]2(CCS(=O)(=O)c2ccccc2)C1=O	0.5
Cc1ccc(S(=O)(=O)Nc2ccc3c(c2)CC(=O)N([C@H](C)CO)C[C@@H](C)[C@@H](CN(C)C(=O)Nc2ccc4c(c2)OCO4)O3)cc1	0.6
CNC[C@H]1OCc2cnnn2CCCC(=O)N([C@H](C)CO)C[C@H]1C	-0.6
COc1ccc(CN(C)C[C@H]2Oc3ccc(NS(=O)(=O)c4ccc(OC)cc4)cc3C(=O)N([C@@H](C)CO)C[C@H]2C)cc1	0.6
C[C@H]1CN([C@@H](C)CO)C(=O)CCCn2cc(nn2)CO[C@H]1CN(C)C(=O)Nc1ccccc1F	0.7
COC(=O)[C@@]1(Cc2ccccc2CN=[N+]=[N-])N=C(c2ccc(OCCCO)cc2)O[C@H]1c1ccccc1	-1.1
COc1ccc(S(=O)(=O)N(C)C[C@H]2Oc3ccc(NC(=O)CCCN(C)C)cc3C(=O)N([C@H](C)CO)C[C@H]2C)cc1	-0.2
C[C@H](CO)N1C[C@H](C)[C@@H](CN(C)S(=O)(=O)c2ccc(F)cc2)Oc2c(NC(=O)Nc3ccc(C(F)(F)F)cc3)cccc2C1=O	1.6
C[C@H](CO)N1C[C@H](C)[C@H](CN(C)C(=O)Nc2ccc(C(F)(F)F)cc2)Oc2c(NC(=O)C3CC3)cccc2C1=O	1.0
Cc1ccc(S(=O)(=O)Nc2ccc3c(c2)C(=O)N([C@H](C)CO)C[C@@H](C)[C@@H](CN(C)S(=O)(=O)c2ccc(C)cc2)O3)cc1	0.4
COc1ccc(NC(=O)N(C)C[C@@H]2OCCCC[C@H](C)Oc3ccc(NS(=O)(=O)c4ccc(F)cc4)cc3C(=O)N([C@H](C)CO)C[C@H]2C)cc1	1.1
COc1ccc(NC(=O)Nc2ccc3c(c2)CC(=O)N([C@H](C)CO)C[C@H](C)[C@H](CN(C)C(=O)Nc2ccc4c(c2)OCO4)O3)cc1	-0.4
C[C@H](CO)N1C[C@H](C)[C@H](CN(C)C(=O)Nc2ccccc2)Oc2ccc(NC(=O)Nc3ccc(C(F)(F)F)cc3)cc2C1=O	0.8
COc1cccc(S(=O)(=O)N(C)C[C@@H]2Oc3ncc(-c4ccc(F)cc4)cc3C(=O)N([C@H](C)CO)C[C@@H]2C)c1	0.4
COC(=O)CCCCCCC(=O)N/N=C/[C@@H]1CCCN1C(=O)OC(C)(C)C	0.4
C[C@@H]1CN([C@@H](C)CO)C(=O)c2cccc(NC(=O)C3CCCCC3)c2O[C@@H]1CN(C)Cc1ccc(Cl)c(Cl)c1	0.0
C[C@H](CO)N1C[C@H](C)[C@@H](CN(C)Cc2ccc(C(=O)Nc3ccccc3N)cc2)Oc2ccc(NS(C)(=O)=O)cc2C1=O	0.5
CNC[C@@H]1OCCCC[C@H](C)Oc2ccc(NS(=O)(=O)c3ccccc3)cc2C(=O)N([C@@H](C)CO)C[C@@H]1C	-0.7

Some of the compounds tested. The share of hits here may be higher or lower than overall.
